Screening results deposited in PubChem BioAssay by several laboratories.
CBX7 inh = CBX7 inhibition, primary AlphaScreen | AlphaScreen His6-CBX7 / biotin-H3K27me3 peptide binding; hits give low values | 1.1% of 66,000 active | normalised signal (fraction of DMSO) (concentration not given with the values) | O95931; in the data active means normalised signal below about 0.5;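 further: 100 nL library stock added to about 20 µL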
Target sequence (O95931 whole entry, looked up): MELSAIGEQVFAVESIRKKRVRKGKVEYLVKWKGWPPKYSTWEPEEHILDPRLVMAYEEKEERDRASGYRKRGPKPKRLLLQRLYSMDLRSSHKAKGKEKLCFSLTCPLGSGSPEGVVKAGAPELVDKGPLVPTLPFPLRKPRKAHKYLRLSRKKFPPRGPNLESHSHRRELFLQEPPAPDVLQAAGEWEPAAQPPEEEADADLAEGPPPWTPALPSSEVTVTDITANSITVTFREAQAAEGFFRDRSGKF
CBX7 inh z-score = recorded beside CBX7 inh, whose call it bears; z-score; measured here: z-score of CBX7 signal; some inactives read as strong as hits; reference of the scale not given here;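 same signal on another scale; lower means less binding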
Active calls of the source: *; & = joins results of further samples.

The line under a structure holds: CBX7 inh	CBX7 inh z-score
C=CCc1cc(C)ccc1OCC(O)Cn1cnc2ccccc21 (stereo not given)
  0.68	-0.66
CCOC(=O)N1CCC(Nc2c(NCCN3CCN(c4cccc(Cl)c4)CC3)c(=O)c2=O)CC1
  1	0.41
COc1cccc(CNC(=O)C2c3ccccc3C(=O)N3CCc4ccccc4C23)c1 (stereo not given)
  1.1	3.8
O=C(CCC1=NS(=O)(=O)c2ccccc2N1)N1CCC(Cc2ccccc2)CC1
  1	-0.044
O=C(CN1C(=O)CSc2ccc(S(=O)(=O)N3CCOCC3)cc21)NCc1cccnc1
  0.97	-0.54
CCOc1ccc(-n2ccnc2SCC(=O)Nc2ccccc2OCC)cc1
  0.9	-0.74
CCCCn1c(CCCNC(=O)c2ccc(F)cc2)nc2ccccc21
  0.98	-0.26
Cc1ccc2nc(-c3ccc(N4C(=O)CC(N5CCCC(C)C5)C4=O)cc3)sc2c1 (stereo not given)
  1	0.32
Cc1cccc(N2CCN(CCNC(=O)c3cc4c(s3)CS(=O)(=O)C4)CC2)c1C
  0.97	-1.1
COc1ccc(-c2nnc3ccc(N4CCCCC4)nn23)c(OC)c1
  0.77	-4.1
CCOC(=O)c1c(NC(=O)c2ccc(Cl)cc2)sc2c1CCC(C#N)(c1ccccc1)C2 (stereo not given)
  1.1	6.1
CC(C)c1ccc(NS(=O)(=O)c2ccc3[nH]cc(C(=O)N4CCN(C)CC4)c(=O)c3c2)cc1
  1.3	3.1
O=C(Nc1ccc(O)c(-c2nc3ccccc3o2)c1)c1cc2ccccc2o1
  0.98	-0.33
CCCSCCCNC(=O)c1ccc2c(c1)N=C(CC)c1cc(Cl)ccc1S2
  1	0.33
CCOC(=O)c1cc(-c2cccs2)no1
  0.9	-1.8
CCOc1ccc(CNc2ccc3c(c2)ncn3CC)cc1
  0.86	-3.2
CCOC(=O)c1c(C)n(CCc2ccccc2)c2ccc(OC)cc12
  1.1	1.7
Cc1noc(C)c1S(=O)(=O)Nc1ccc2c(c1)OCO2
  0.97	-1.7
COCCNC(=O)c1nn2c(c1Cl)NC(c1ccccc1)CC2C(F)(F)F (stereo not given)
  1	0.39
COc1ccc(NC(=O)C2CCCN(S(=O)(=O)c3ccc(Br)s3)C2)cc1OC (stereo not given)
  0.86	-1.4
COc1ccc(N2C(=O)CCC(C(=O)Nc3cccc(OC)c3)C2c2ccc(F)cc2)cc1 (stereo not given)
  1.1	2
Cc1[nH]nc2c1C(c1cccc(Cl)c1)CC(=O)N2 (stereo not given)
  0.87	-1.2
Cc1cc(C)cc(OCc2nc(-c3ccccc3)no2)c1
  1.6	9.1
CCCNC(=O)c1cc2sc(Cl)cc2n1C
  1	0.098
COc1ccc(Cn2c(CCC(=O)Nc3ccc(F)c(Cl)c3)nc3cccnc32)cc1
  1	0.044
Cc1ccc(Nc2cc(C)nc3nc(C)nn23)cc1
  1	0.046
COc1ccccc1N1CCN(CC(O)COc2ccc(Cl)cc2C)CC1 (stereo not given)
  0.92	-2.5
COc1cccc(-c2cc(C(=O)Nc3cccc(C(F)(F)F)c3)no2)c1
  0.93	-0.76
CC(=O)N1CCc2cc(S(=O)(=O)Nc3cccc(C)c3)ccc21
  0.8	-0.8
N#Cc1nc(-c2ccc(F)cc2)oc1N1CCOCC1
  1	0.54
CCOCCCN1CC(C(=O)NCc2ccc3c(c2)OCO3)CC1=O (stereo not given)
  0.92	-1.8
CCOc1ccc(C2c3[nH]c4ccccc4c3CCN2C(=O)c2cccc(Br)c2)cc1 (stereo not given)
  0.68	-6.2
Cc1cccc(NC(=O)c2ccc(CNc3c(N4CCCCC4)c(=O)c3=O)cc2)c1
  0.9	-0.22
O=C1CC(N2CCN(c3ccc(F)cc3)CC2)C(=O)N1CC(c1ccccc1)c1ccccc1 (stereo not given)
  0.88	-5.1
CCc1ccc(NS(=O)(=O)c2ccc3[nH]cc(C(=O)NC(C)c4ccccc4)c(=O)c3c2)cc1 (stereo not given)
  0.89	-1.4
CCc1cc2c(=O)c(-c3nc4ccccc4n3C)c(C)oc2c(CN2CCCCC2)c1O
  0.99	-0.042
CCC(C)NC(=O)CCc1nc2ccccc2n(Cc2ccccc2F)c1=O (stereo not given)
  1.1	0.56
Cc1nc2c(-c3ccc(F)cc3)c(C)nn2c(C)c1CCC(=O)NCCN1CCOCC1
  1	0.17
O=C1c2ccccc2NC(c2ccncc2)N1c1ccccc1Cl (stereo not given)
  1	0.47
COc1ccc(-c2csc(C3COc4ccccc4O3)n2)c(OC)c1 (stereo not given)
  1.2&1.3	5.7&7.7
O=C(Nc1nc(-c2ccc(F)cc2)cs1)c1ccc(Cl)cc1
  1	0.53
COc1ccc(Cl)cc1Nc1nc(-c2sc(C)nc2C)cs1
  0.99	-0.16
COc1ccccc1CNC(=O)c1cnc(Nc2ccc(C)c(Cl)c2)c2ccccc12
  1.2	6.6
Cc1cccc(CCNC(=O)CN2CCN(Cc3ccc(F)cc3Cl)C2=O)c1
  1	0.23
COC(=O)c1cc(OCc2c(C)noc2C)cc(C(=O)OC)c1
  1	0.048
O=C(CSc1nnc(-c2ccncc2)n1-c1ccccc1)Nc1ccccc1Cl
  1	-0.075
O=C(NCCCN1CCN(c2ccc(F)cc2)CC1)Nc1ccc(F)cc1
  1.3	2.4
Cc1ccc2nc(-c3cc(N)ccc3Cl)oc2c1
  1	0.19
Cc1ccc(-c2cn(-c3cc(C)ccc3C)c(=O)[nH]2)cc1
  0.97	-0.67
COc1cc(NC(=O)c2cnn(-c3ccc(F)cc3)c2C2CCNCC2)cc(OC)c1
  0.95	-1
CCCCN(C)C(=O)CN1C(=O)CC(C)(C)Sc2ccccc21
  1	0.59
Cc1ccc(NC(=O)Cn2ncc3c2-c2ccccc2OC3)c(Br)c1
  0.97	-0.48
O=C(NCc1ccccc1Cl)c1cc(-c2ccc(F)cc2)nc2ccccc12
  0.93	-0.072
CCCOc1ccc(N2C(=O)CC(N3CCN(Cc4ccc5c(c4)OCO5)CC3)C2=O)cc1 (stereo not given)
  0.97	-0.52
COc1ccc(CCNC(=O)CN2C(=O)COc3ccc(C)cc32)cc1OC
  1	1.1
Cc1cc(OCC(=O)Nc2ccc(-c3nc4ccccc4o3)c(O)c2)ccc1Cl
  0.98	-0.52
COCc1cc(=O)n2[nH]c(-c3ccc(C(C)(C)C)cc3)cc2n1
  1	0.44
Cc1cc(C)c2nc(N3CCC(C(=O)NCc4cccc(Cl)c4)CC3)sc2c1
  1	0.35
CN(Cc1ccccc1)c1nnc(NC(=O)Nc2ccc(Cl)cc2)s1
  0.81	-0.75
COC(=O)Cn1cnc2sc(C)c(S(=O)(=O)N3CCN(c4ccccc4OC)CC3)c2c1=O
  1.1	0.95

Next compounds.
The line under a structure holds: CBX7 inh	CBX7 inh z-score
Cc1ccc(NC(=O)c2cc3c(C)nn(-c4ccccc4)c3s2)cc1
  1.2	2.1
CCOC(=O)c1cc(-c2cccnc2)no1
  0.96	-1.1
COc1ccc(C(c2sc3nc(C)nn3c2O)N2CCOCC2)cc1OC (stereo not given)
  1	1.3
CCc1ccc(-c2nc(CN3CCC(C(=O)NCCOC)CC3)c(C)o2)cc1
  0.82	-0.24
CCc1ccc(NC(=O)c2cccc3c2C(=O)N(CCOC)C3)cc1
  1.1	3.2
Cc1ccc(OCc2nnc(SCC(=O)Nc3ccccc3C(C)C)o2)cc1
  1.1	0.96
COc1cc(Nc2nc(-c3cccc(C)c3)nc3ccccc23)cc(OC)c1
  1.3	6.3
CCc1ccc(NC(=O)C2NC(=O)CC2c2ccccc2)cc1 (stereo not given)
  1.1	2.5
Cc1c(Cl)cccc1NC(=O)c1sc2ncn(Cc3cccc(F)c3)c(=O)c2c1C
  1	0.32
Cc1ccc(NC(=O)C(C)C)c(C(=O)c2ccccc2)c1
  1	0.06
COc1cccc(-c2cc(C(=O)Nc3cc(OC)c(Cl)cc3OC)no2)c1
  1.1	0.42
O=C(Cn1c(-c2cncs2)nc2ccccc21)Nc1ccc(OC(F)(F)F)cc1
  1	0.18
NC(=O)c1cc(Oc2ccc(Br)cc2)nc2ccccc12
  1.1	2.6
O=C(Cn1ccc2ccccc2c1=O)NCCC(=O)N1CCCC1
  0.96	-1
Cc1ccccc1Nc1nnc(-c2ccc(C(=O)NCCO)cc2)c2ccccc12
  0.95	-0.13
Cc1cccc2sc(NC(=O)c3ccccc3Oc3ccccc3)nc12
  0.99	-0.023
Cc1ccc(C)c(Cn2c(CNC(=O)Cc3ccccc3)nc3ccccc32)c1
  1.1	1.2
Cc1ccc(S(=O)(=O)c2cn(CC(=O)Nc3ccccc3)c3ccc(F)cc3c2=O)cc1
  0.8	-2.9
Cc1cccc(NC(=O)COc2ccc3oc4c(c3c2)CCCC4)c1
  1.1	0.66
Cc1ccc2c(c1)N(CC(=O)NC(C)C)C(=O)CO2
  1.1	1.5
O=C(O)c1ccc2c(c1)NC(=O)c1ccccc1S2(=O)=O
  1	0.22
CC1CCN(C2CC(=O)N(c3ccc(Br)cc3)C2=O)CC1 (stereo not given)
  1.2	1.5
COc1ccc(OC)c(C2=NOC(C(=O)N3CCCCCC3)C2)c1 (stereo not given)
  1	1.2
CC1C(=O)CC(c2ccccc2)N(C)C1c1ccccc1 (stereo not given)
  1.2	1.5
O=C(O)c1ccc(NCc2ccccc2Cl)c(S(=O)(=O)Nc2cccc(C(F)(F)F)c2)c1
  0.95	-0.75
COc1ccc(CNc2ccc3[nH]c(=O)[nH]c3c2)cc1OC
  0.9	-1
NS(=O)(=O)c1ccc(NC(=O)CSc2nnc3c(n2)[nH]c2ccccc23)cc1
  0.8	-3.1
O=C1CC(NCc2ccc3c(c2)OCO3)C(=O)N1c1ccc(Cl)cc1 (stereo not given)
  1	0.38
C=CCNC(=O)C1CC(=O)N(c2ccc(F)c(Cl)c2)C1 (stereo not given)
  0.97	-0.51
Cc1ccc(Nc2c(-c3cccc(Cl)c3)nc3ccc(Cl)cn23)cc1
  0.86	-1.5

Single entries from the list.
CBX7 inh z-score result of `COc1ccc(CNc2ccc3[nH]c(=O)[nH]c3c2)cc1OC` is entered as -1
CBX7 inh z-score result of `Cc1ccc(Nc2c(-c3cccc(Cl)c3)nc3ccc(Cl)cn23)cc1` is entered as -1.5
CBX7 inh result of `Cc1ccc(NC(=O)c2cc3c(C)nn(-c4ccccc4)c3s2)cc1` is entered as 1.2
CBX7 inh result of `COc1cc(Nc2nc(-c3cccc(C)c3)nc3ccccc23)cc(OC)c1` is entered as 1.3
CBX7 inh z-score result of `Cc1c(Cl)cccc1NC(=O)c1sc2ncn(Cc3cccc(F)c3)c(=O)c2c1C` is entered as 0.32
CBX7 inh result of `O=C1CC(NCc2ccc3c(c2)OCO3)C(=O)N1c1ccc(Cl)cc1` (stereo not given) is entered as 1
CBX7 inh z-score result of `CC1C(=O)CC(c2ccccc2)N(C)C1c1ccccc1` (stereo not given) is entered as 1.5

Back to the main list, repeating the 7 entries before the break.
The line under a structure holds: CBX7 inh	CBX7 inh z-score
CC1C(=O)CC(c2ccccc2)N(C)C1c1ccccc1 (stereo not given)
  1.2	1.5
O=C(O)c1ccc(NCc2ccccc2Cl)c(S(=O)(=O)Nc2cccc(C(F)(F)F)c2)c1
  0.95	-0.75
COc1ccc(CNc2ccc3[nH]c(=O)[nH]c3c2)cc1OC
  0.9	-1
NS(=O)(=O)c1ccc(NC(=O)CSc2nnc3c(n2)[nH]c2ccccc23)cc1
  0.8	-3.1
O=C1CC(NCc2ccc3c(c2)OCO3)C(=O)N1c1ccc(Cl)cc1 (stereo not given)
  1	0.38
C=CCNC(=O)C1CC(=O)N(c2ccc(F)c(Cl)c2)C1 (stereo not given)
  0.97	-0.51
Cc1ccc(Nc2c(-c3cccc(Cl)c3)nc3ccc(Cl)cn23)cc1
  0.86	-1.5
O=C(NCCN1CCOCC1)C1CCC(=O)N1Cc1ccccc1Cl (stereo not given)
  1	1.3
CCOc1ccc(-c2nc(SCC(=O)NC3CCCC3)c(-c3ccc(OC)c(OC)c3)[nH]2)cc1
  0.82	-2.9
Cc1ccc(C(C(=O)NC2CCCCC2)N2CC(C)CC(C)C2)cc1 (stereo not given)
  0.79	-5.2
O=C(O)c1ccc(Nc2nc(-c3ccncc3)cs2)cc1
  0.91	-1.7
CC(C)c1ncc(C(O)(c2ccccc2)c2ccccc2)n1C
  0.87	-0.83
Cc1sc(NC(=O)c2ccc(Cl)cc2)nc1-c1ccccc1
  1.1	0.81
COc1ccc(-c2noc(CCC(=O)NCc3cccnc3)n2)cc1
  0.97	-0.026
Cc1ccc(-c2nn(CC(=O)NCc3ccccc3)c(=O)c3ccccc23)cc1
  1.1	1.2
C=CCN1C(=O)CSc2ccc(C(=O)NC(C)CCc3ccccc3)cc21 (stereo not given)
  1.1	2
CCC1CCC(=O)C(C2(O)C(=O)Nc3ccccc32)C1 (stereo not given)
  1.1	3.5
COC(=O)c1ccccc1NC(=O)C1CCN(C(=O)c2cnn(-c3ccccc3)c2-n2cccc2)CC1
  0.87	-0.3
CCn1c(C(=O)NCCC2=CCCCC2)cc2sc(Cl)cc21
  1.1	0.94
Cc1c(C(=O)N2CCOCC2)oc2ccc(S(=O)(=O)N3CCCCCC3)cc12
  0.98	-0.37
CCOC(=O)C1CCCN(c2c(N3CCN(C)CC3)c(=O)c2=O)C1 (stereo not given)
  0.96	-1.4
Cn1cnnc1SCc1cn2cc(Cl)ccc2n1
  1	0.62
CCOC(=O)c1c(NC(=O)COc2ccc(C)cc2C(C)(C)C)sc2c1CCCC2
  1.5	1.1
Cc1ccc(CCNC(=O)CCc2nc3ccccc3[nH]2)cc1
  1	1.4
CCc1ccc(OCc2nc(-c3ccc(OC)c(OC)c3)no2)cc1
  1.2	5.1
O=C(Nc1cccc(F)c1)c1oc2ccccc2c1NC(=O)C12CC3CC(CC(C3)C1)C2
  1.1	1.4
CC(C)C(=O)Nc1cc(-c2nc3cc(C(C)C)ccc3o2)ccc1Cl
  1.1	1.5
Cc1ccc(S(=O)(=O)Nc2ccccc2C(=O)Nc2nc3ccccc3s2)cc1
  0.85	-2.5
O=C(NCCCn1ccnc1)c1cnn2c(C(F)(F)F)cc(-c3ccc(Br)cc3)nc12
  0.91	-2.1
COc1ccc(NC(=O)c2cc(-c3ccc(Br)cc3)nc3ccccc23)cc1
  0.88	-2.3

A portion of the library; count on the stated rates, not on these rows.
